# High-throughput results (PubChem)
# Cruzain inh Det: inhibitors of Trypanosoma cruzi cruzain with detergent; AID 1478; 200,000 compounds, 0.43% hits; purified cruzain, Z-FR-AMC fluorescence, 0.01% Triton; Potency, µM, without a hit: max response, negative = inhibition, most hits filed as inhibitors; P25779;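 also: plate controls were neutral wells for no effect and buffer without enzyme for full effect; nearly all actives have a fitted effect of over 40% in size; top concentration of the series not given in the record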
# Target sequence (P25779 123-467 limits assumed): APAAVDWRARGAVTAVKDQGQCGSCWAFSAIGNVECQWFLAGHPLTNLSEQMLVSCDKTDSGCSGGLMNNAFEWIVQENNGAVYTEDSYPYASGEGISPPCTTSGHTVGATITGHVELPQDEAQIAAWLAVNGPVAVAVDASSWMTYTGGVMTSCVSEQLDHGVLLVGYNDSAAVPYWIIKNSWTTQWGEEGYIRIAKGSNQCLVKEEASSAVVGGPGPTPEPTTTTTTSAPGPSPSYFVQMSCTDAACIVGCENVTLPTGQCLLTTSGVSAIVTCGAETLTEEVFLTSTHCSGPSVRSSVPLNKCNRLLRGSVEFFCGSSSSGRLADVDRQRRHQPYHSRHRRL
#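 Cruzain (1.5 nM) preincubated 15 min at RT with compound in 100 mM sodium acetate pH 5.5, 5 mM DTT, 0.01% Triton X-100. Reaction started with 2 uM Z-FR-AMC; AMC fluorescence (ex 360/em 450 nm) change over 60 s gave rate.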
# RE007 growth inh: less growth of the S. pombe RE007 Vpr strain; S. pombe RE007 Vpr strain, BacTiter-Glo ATP luminescence, 24 h; control for the full effect not named in the record; Potency, µM (top dose mostly 92.2 µM), for the others: top-dose activity change, negative = less growth; 360,000 compounds, 0.21% hits; AID 651644; active = well fitted falling curve with a large enough effect; inconclusive = small, poorly fitted or top-dose-only effect; inactive = no such curve, though single readings can be large or run the other way;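 also: % is scaled to controls: 0 for no effect and ±100 for the full control effect; nearly all actives have a fitted effect of over 50% in size; the assay follows cell death caused by Vpr and the record does not say whether a fall means rescue or toxicity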
#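 Fission yeast RE007 carrying one integrated HIV-1 vpr copy, seeded at OD 0.01 in PMG+AL medium with 23 nL pinned compound. Grown 24 h at 30 degrees; viability read by BacTiter-Glo luminescence after 5 min.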
# Marburg entry inh: inhibitors of Marburg virus binding or cell entry | 300,000 compounds, 1.8% hits | Potency, µM (highest dose often 37.8 µM), for inactives: at the top dose activity change, negative = inhibition, most hits filed as inhibitors | Marburg virus pseudotyped entry inhibition, cell reporter; control for the full effect not named in the record; about a third of the inactives were read at about 46 µM; active = well fitted inhibition curve with a large enough effect; inconclusive = small, poorly fitted or top-dose-only effect, or effect the other way; inactive = flat fitted curve, though single readings scatter; tested in HEK293 cells; about a fifth of its hits are not listed in these tables; also: % is scaled to controls: 0 for no effect and ±100 for the full control effect; luciferase read-out
# LASV entry inh: Lassa virus entry inhibition. Lassa virus pseudotype entry inhibition, cell reporter; control for the full effect not named in the record. Potency, µM (titrated, usually from 37.9 µM), without a hit: at the top dose activity change, negative = inhibition, usual class: inhibitors. 300,000 compounds, 1.2% hits. AID 540256; active means well fitted inhibition curve with a large enough effect; inconclusive means small, poorly fitted or top-dose-only effect, or effect the other way; inactive means flat fitted curve, though single readings scatter; tested in HEK293 cells; also: % is scaled to controls: 0 for no effect and ±100 for the full control effect; nearly all actives have a fitted effect of over 50% in size; luciferase read-out
# StopGo reporter: FMDV 2A StopGo reporter, luciferase signal; 410,000 compounds, 1.2% hits; Potency, µM (highest dose often 57.9 µM), for the others: at the highest dose signal change, negative = less light; human cells with a luciferase reporter of 2A StopGo recoding; control for the full effect not named in the record; active = well fitted falling curve with a large enough effect; inconclusive = small, poorly fitted or top-dose-only effect; inactive = no such curve, though single readings can be large or run the other way; tested in HEK293T cells; also: % is scaled to controls: 0 for no effect and ±100 for the full control effect; nearly all actives have a fitted effect of over 45% in size; luciferase light after 4 h
# Cruzain noTriton: inhibitors of Trypanosoma cruzi cruzain without detergent; P25779; purified cruzain, Z-FR-AMC fluorescence, no detergent; Potency, µM, for inactives: max response, negative = inhibition, most hits filed as inhibitors; 200,000 compounds, 2.3% hits;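 also: plate controls were enzyme without inhibitor for no effect and buffer without enzyme for full effect; nearly all actives have a fitted effect of over 40% in size; top concentration of the series not given in the record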
#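 Detergent-free condition (0.00005% Triton X-100) in acetate buffer pH 5.5 with DTT. 1.5 nM enzyme and compound were pre-mixed 15 min, then 2 uM Z-FR-AMC substrate added; reaction progress from fluorescence change between first and third reads (60 s).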
# NS1 function inh: blocks influenza NS1 protein function; AID 2326; S. cerevisiae slowed by influenza A NS1, growth recovery by OD600; Potency, µM (series often up to 46.1 µM), without a hit: top-dose activity, positive = more growth; 270,000 compounds, 0.4% hits; active means well fitted rising curve with a large enough effect; inconclusive means small, poorly fitted or top-dose-only effect; inactive means no such curve, though single readings can be large or run the other way; also: nearly all actives have a fitted effect of over 50% in size
#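 A cell-based growth assay was used: compounds that relieve NS1-induced slow growth of budding yeast raise OD600. Assay medium was yeast nitrogen base with ammonium sulphate and -URA supplement, pH 6.0, with 2% galactose.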
# SARS PLP yeast: inhibitors of SARS-CoV papain-like protease in yeast | S. cerevisiae expressing SARS-CoV PLpro, growth rescue; control for the full effect not named in the record | Potency, µM (titrated, usually from 32.9 µM), for the others: at the top dose activity, positive = growth rescue | 330,000 compounds, 0.19% hits; active means well fitted rising curve with a large enough effect; inconclusive means small, poorly fitted or top-dose-only effect; inactive means no such curve, though single readings can be large or run the other way; also: 0% is about no effect; nearly all actives have a fitted effect of over 55% in size; growth read by luminescence after 48 h
# Numbers without * were called inactive; ? = inconclusive; · = no result given; & = joins results of further samples; [ ] = another dose, or the depositor's remark. Unless noted, calls follow the shape of the dose curve; as a rule, active = well fitted curve in the direction sought with a large enough effect; inconclusive = small, poorly fitted or top-dose-only effect, or another doubt; inactive = no such curve, though single readings can be large; an effect the other way counts as inactive or inconclusive. Potency is read from the fitted curve at half-maximal effect.
SMILES,Cruzain inh Det,RE007 growth inh,Marburg entry inh,LASV entry inh,StopGo reporter,Cruzain noTriton,NS1 function inh,SARS PLP yeast
COc1ccc(C(=O)NCC(c2ccc3c(c2)OCO3)N2CCOCC2)cc1OC (configuration not stated),0.6%,·,·,·,-21%,3%,·,·
O=C(Nc1ccc(S(=O)(=O)N2CCOCC2)cc1)c1ccc(Br)o1,-5.8%,-9%,9%,13%,3%,2%,-31%,3%
Cc1ccc(-n2nc3c(=O)n(CC(=O)NCCc4ccccc4C)nc(C)c3c2C)cc1,·,-2%,?,0%[46.1 µM],?,·,-2%,0%
O=C(NCCc1ccccc1)c1cnc2ccccn2c1=O,-5.3%,2%,?,?,·,-4%,-5%,0%
CCCN(CC(=O)Nc1ccccc1C)C(=O)C1CC(=O)N(Cc2ccccc2)C1 (configuration not stated),·,5%,10%,-11%,16%,·,·,0%
COc1ccc(Cc2n[nH]c(=S)n2N)cc1OC,·,-10%,13%,22%,5%,·,4%,0%
CCNc1nc(N)nc(Oc2ccc(OCC(=O)OC)nn2)n1,5.1%,·,1%[46.1 µM],23%[46.1 µM],-7%,2%,·,·
O=C(CSC1=NCCN1)Nc1cccc(C(F)(F)F)c1,·,-7%,-19%,-28%,-14%,·,-2%,-1%
Cc1nn(-c2nc(-c3ccc(F)cc3)cc(C(F)(F)F)n2)c(C)c1Cl,-17%,·,?,4%[46.1 µM],-13%,15%,·,·
COc1ccc(OC)c(NC(=O)c2ccc(CN3CCc4ccccc4C3)cc2)c1,·,-9%,·,·,-17%,·,-3%,-2%
CCOc1ccc(N(CC(=O)NC2CCCCC2)S(=O)(=O)c2c(C)noc2C)cc1,-3.2%,3%,·,·,-19%,-10%,2%,11%
O=C(C1CCCO1)N1CCN(Cc2c(O)ccc3ccccc23)CC1 (configuration not stated),-0.6%,-14%,4%,?,3%,-2%,11%,-11%
CN(Cc1nccn1C)C(=O)c1ccc(OC2CCN(CCc3ccccc3)CC2)cc1,·,7%,-27%,?,-1%,·,7%,3%
COc1cccc(-c2ccc(NC(=O)C3CCCN(Cc4nccn4C)C3)cc2)c1 (configuration not stated),·,-2%,?,-4%,21%,·,-13%,-2%
COc1ccc(-c2cc(C(=O)NN)[nH]n2)cc1OC,·,4%,·,·,0%,·,8%,-1%
Cc1ccc(CCNC(=O)c2ccc3c(c2)c(C)c(C)n3Cc2ccccc2)cc1,1.7%,·,·,-16%[46.1 µM],-17%,13µM*,·,·
COc1ccc(C(CNC(=O)C(CC(C)C)NS(=O)(=O)c2ccc(C)cc2)N2CCOCC2)cc1 (configuration not stated),·,-10%,-12%,-7%[46.1 µM],-5%,·,·,-3%
CCCc1nnc(NC(=O)CNc2ccc(F)cc2)s1,-0.3%,-14%,-2%,6%,0%,7%,-3%,-5%
Cc1cc(C)cc(NC(=O)CN2C(=O)CN=C(c3ccccc3)c3cc(Cl)ccc32)c1,-8.7%,·,·,?,-24%,5%,·,·
COc1ccc(OC)c(-n2c(O)c(C=Nc3c(C)n(C)n(-c4ccccc4)c3=O)c(=O)[nH]c2=S)c1,·,3%,?,-25%,-18%,·,-5%,1%
COc1ccc(C)cc1N(CC(=O)N1CCc2ccccc2C1)S(C)(=O)=O,·,-7%,·,·,-14%,·,-5%,1%
CC(C)(C)OC(=O)N1Cc2ccccc2C[C@H]1C(=O)N1CCC[C@H]1C(=O)O,·,-15%,2%[46.1 µM],0%[46.1 µM],58%[activator],·,11%,0%
O=C(N/C(=C\c1cccs1)C(=O)N1CCCCCC1)c1ccccc1,-1.8%,-4%,2%,14%,·,0%,-2%,6%
CSc1nc2ncc(C(=O)O)c(N)n2n1,·,0%,?,?,14%,·,·,1%
CCOc1ccc(C(=O)OCC(=O)NCc2ccccc2)cc1OCC,·,3%,4%,?,-21%,·,·,2%
O=S(=O)(NC1CC1)c1ccc(S(=O)(=O)N(Cc2ccccn2)C2CCCC2)cc1,-1.8%,-14%,-1%,?,·,0%,-2%,8%[6.58 µM]
CCCCCCNC(=O)CC(NS(=O)(=O)c1ccc(OC)cc1)C(C)C (configuration not stated),-2.4%,-7%,-25%,-12%,25%,-3%,-13%,0%
O=C(CNC(=O)c1ccco1)OCc1ccccc1Cl,·,9%,9%[46.1 µM],-2%[46.1 µM],36%[activator],·,·,-1%
COc1cccc(C(=O)N2CCN(S(=O)(=O)Cc3ccccc3)CC2)c1OC,-5.8%,-15%,-1%&-1%&-1%,7%,-29%,-2%,-7%,-28%
O=C(Cc1cn2ccsc2n1)Nc1nc2c(s1)CN(Cc1ccccc1)CC2,-19%,-5%,-1%,16%,4%,?,?,-2%
CN(C)C(CNC(C(=O)Nc1ccc([N+](=O)[O-])cc1Br)c1ccccc1)c1ccccc1 (configuration not stated),·,-13%,?,?,0%,·,·,1%
COc1ccccc1C(=O)Nc1ccc(Br)c2cccnc12,·,-3%,·,·,40%[activator],·,-4%,-5%
CC(C(=O)c1c[nH]c(C(=O)N=CN(C)C)c1)c1ncc(C(F)(F)F)cc1Cl (configuration not stated),·,13%,?,-2%[46.1 µM],5%,·,·,1%
NC(=O)c1cc(-c2ccccc2)sc1NC(=O)CN1CCCCC1,-12%,-18%,6.3µM*,?,8%,-4%,-12%,2%
Cc1ncc([N+](=O)[O-])n1CC(=O)Nc1ccc(F)c(F)c1,·,15%,6%[46.1 µM],1%[46.1 µM],-19%,·,0%,0%
CC1CCCC(C)N1C(=O)COC(=O)c1cc(Br)ccc1Cl (configuration not stated),·,0%,-23%[46.1 µM],0%[46.1 µM],-21%,·,·,1%
COc1cccc(-c2nnn(CC(=O)NC3CCCC3)n2)c1OC,-0.6%,-4%,15%,15%,2%,-13%,7%,-3%
CCOc1ccc(Br)cc1C(=O)N/N=C/c1cccc(C)n1,·,-10%,·,·,1%,·,1%,0%
CCCn1c(SCC(=O)Nc2ccc3c(c2)OCO3)nc2c1c(=O)n(C)c(=O)n2C,0.3%,4%,?,-4%,-16%,-1%,-8%,-1%
CC(C)(C)NC(=O)NC(=O)COc1ccc(Br)cc1Br,-7.6%,?,?,5.8µM*,?,5%,-42%,-56%
C[C@]12C(=O)N(c3cccc(Cl)c3)C(=O)N1[C@H]1c3ccccc3OC[C@@H]1[C@H]2c1ccccc1,·,4%,·,·,-23%,·,-14%,-2%
COc1ccc(/C=C2\SC(=O)N(CCC(=O)N3CCCCC3)C2=O)cc1OC,·,2%,?,?,14%,·,2%,1%
O=C(Cc1ccc(F)cc1)NC1CCCC1,1.1%,-14%,?,11%,0%,-5%,-2%,1%
CCn1cc(C(=O)NCc2ccc3c(c2)OCO3)c(=O)c2cc(F)c(N3CCN(C(=O)c4ccco4)CC3)cc21,-3.0%,4%,?,?,14µM*,?,-3%,28%
Cc1ccccc1N1CCN(CCCOc2ccc3c(C)cc(=O)oc3c2)CC1,-6.2%,-10%[3.69 µM],-31%,-17%,-2%,-16%,1%,1%
Cc1cc(C)c(NC(=O)COC(=O)c2ccc([N+](=O)[O-])s2)c(C)c1,-0.9%,15%,12%,8%,0%,?,22%,-30%
N/C(=N\OC(=O)COc1ccc(Br)cc1Cl)c1cccnc1,-9.9%,3%,?,?,18%,14%,13%,?
COc1ccc(OC)c(Nc2cc(C)nc3nc(C)nn23)c1,8.0%,-5%,·,·,-29%,0%,-1%,0%
COc1cccc(NC(=O)CN2C(=O)COc3ccc(S(=O)(=O)N4CCCCCC4)cc32)c1,-4.6%,2%,·,-8%[46.1 µM],-3%&-6%,-8%,5%,-3%
COC(=O)c1ccc(OCC2c3cc(OC)c(OC)cc3CCN2C(=O)c2ccccc2C)cc1 (configuration not stated),2.3%,·,·,-4%[46.1 µM],?,?,·,·
N#CCCN(C(=O)Nc1ccccc1)C1CCCCC1,·,10%,4%[46.1 µM],-11%[46.1 µM],-15%,·,·,·
CCOC(=O)c1c(C)[nH]c(C2=NNC(=Nc3ccccc3)SC2)c1C,-8.6%,9%,1%,·,0%,?,18%,-49%
COc1cc2c(cc1OC)C(C1C(=O)CC(C)(C)CC1=O)N(C(=O)CCl)CC2 (configuration not stated),-0.1%,-2%,?,?,0%,9%,8%,-14%
Cc1cccc(OCCOCCN2CCNCC2)c1C,-1.1%,1%,?,-24%,?,5%,8%,-2%
OC1(c2cccs2)CN(c2ccccc2)C2=[N+]1CCCC2 (configuration not stated),·,-6%,-23%[46.1 µM],-1%,-1%,·,·,2%
CCn1cc(C(=O)NCCc2ccc(Cl)cc2)c(=O)c2ccc(C)nc21,·,-3%,·,·,-19%,·,-7%,0%
NC(=O)c1ccc(NC(=O)CSc2nnc(C3CCCCC3)n2N)cc1,·,-5%,·,·,-2%,·,2%,-4%
COc1cc2c(cc1OC)C(C)N(S(=O)(=O)c1ccc(Cl)nc1)CC2 (configuration not stated),·,6%,·,·,-13%,·,-2%,-2%

# 3 structures out of the list, arranged by formula weight, lowest first:
SMILES,Cruzain inh Det,RE007 growth inh,Marburg entry inh,LASV entry inh,StopGo reporter,Cruzain noTriton,NS1 function inh,SARS PLP yeast
OC1(c2cccs2)CN(c2ccccc2)C2=[N+]1CCCC2 (configuration not stated),·,-6%,-23%[46.1 µM],-1%,-1%,·,·,2%
CCn1cc(C(=O)NCCc2ccc(Cl)cc2)c(=O)c2ccc(C)nc21,·,-3%,·,·,-19%,·,-7%,0%
NC(=O)c1ccc(NC(=O)CSc2nnc(C3CCCCC3)n2N)cc1,·,-5%,·,·,-2%,·,2%,-4%

# Outcome played no part in choosing rows, and some 4.7% of all compounds hit somewhere here.
